# Screening results as filed in PubChem BioAssay.
# Rango-impB inh: inhibitors of Rango-importin beta complex formation; Q14974; Potency, µM (highest dose often 92.2 µM), inactives show top-dose inhibition of complex formation; Rango CFP/YFP FRET sensor + importin beta, 45 min; 0.031% of 340,000 active; AID 540263; active = rising FRET ratio curve, often small or poorly fitted; inconclusive = mostly compound fluorescence or quenching in the first reads; inactive = flat curves in all reads;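 note: potency is the fitted concentration of half-maximal effect; 0% = DMSO wells and 100% = buffer wells lacking importin beta; nearly all actives have a fitted effect of over 15% in size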
# Target sequence (Q14974 whole entry, looked up): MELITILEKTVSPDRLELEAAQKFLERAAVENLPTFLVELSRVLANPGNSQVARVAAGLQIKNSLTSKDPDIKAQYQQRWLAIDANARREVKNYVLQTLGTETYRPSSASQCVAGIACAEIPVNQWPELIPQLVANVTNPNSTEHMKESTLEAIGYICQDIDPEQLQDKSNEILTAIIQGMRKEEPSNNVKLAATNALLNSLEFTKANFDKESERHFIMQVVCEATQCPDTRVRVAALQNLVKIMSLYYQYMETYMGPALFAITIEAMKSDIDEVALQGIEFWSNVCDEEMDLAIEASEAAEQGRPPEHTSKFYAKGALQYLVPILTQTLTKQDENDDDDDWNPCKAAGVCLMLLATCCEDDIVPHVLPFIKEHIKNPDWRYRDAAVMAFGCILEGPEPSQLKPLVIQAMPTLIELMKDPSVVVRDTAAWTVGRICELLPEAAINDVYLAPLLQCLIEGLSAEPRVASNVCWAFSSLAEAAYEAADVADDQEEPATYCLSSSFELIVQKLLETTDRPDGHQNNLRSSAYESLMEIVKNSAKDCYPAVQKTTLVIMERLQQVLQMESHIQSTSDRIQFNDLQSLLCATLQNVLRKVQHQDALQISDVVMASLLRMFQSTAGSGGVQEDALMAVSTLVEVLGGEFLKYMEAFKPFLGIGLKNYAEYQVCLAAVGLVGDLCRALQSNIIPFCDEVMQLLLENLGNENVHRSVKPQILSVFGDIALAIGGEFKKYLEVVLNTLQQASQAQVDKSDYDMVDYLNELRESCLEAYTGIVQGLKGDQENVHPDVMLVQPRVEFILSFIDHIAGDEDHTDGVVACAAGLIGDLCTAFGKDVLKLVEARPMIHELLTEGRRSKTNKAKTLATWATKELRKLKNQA
#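 FRET biosensor (snurportin 1 IBB flanked by EYFP and cerulean), 50 nM, with compound 5 min, then 0.125 microM importin beta in PBS, 1 mM DTT, 0.02% Tween-20, 0.1% BSA. CFP/YFP ratio read after 45 min at room temperature; pre-read flags interference.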
# GLA inh pH 4.5: inhibitors of human alpha-galactosidase A at pH 4.5 | P06280 | purified enzyme, 4-MU-alpha-Gal fluorescence, pH 4.5 | activity change, negative = inhibition, % at 105 µM | 230,000 tested, under 10 active; inconclusive = small, poorly fitted or top-dose-only inhibition, or a rising curve; inactive = flat fitted curve, though single readings scatter; no compound was filed as active;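 note: 0% = full activity with enzyme and -100% = basal without enzyme; dose as in the result columns while the protocol names 77 µM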
# Rango dissoc inh: prevents RanGTP from dissociating the Rango-importin beta complex; O95149+P62826; Biochemical FRET Rango-importin beta, RanGTP-induced dissociation; Potency, µM (doses to about 46.1 µM), for inactives: at the highest dose activity change, negative = inhibition; 0.071% of 340,000 active; AID 540253; active means falling FRET ratio curve, often poorly fitted, with flat reads before Ran was added; inconclusive means other falling curves, or compound fluorescence or quenching; inactive means flat or rising ratio curve;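 note: potency is the fitted concentration of half-maximal effect; % of control where 0% means no effect; nearly all actives have a fitted effect of over 45% in size; -100% = wells without RanGTP and RCC1; the record marks most hits as doubtful in a second field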
#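 Compounds preincubate 5 min with complex of recombinant Rango and importin beta in PBS with 1 mM DTT. Ran (0.6 uM) loaded with 2 mM GTP plus 0.2 uM RCC1 starts dissociation; FRET is recorded 45 min later.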
# miR-21 FLuc: raises the signal of a miR-21 reporter | Potency, µM (series often up to 38.3 µM), inactives show top-dose reporter change, positive = more light | AID 2288 | 340,000 tested, under 10 active | HeLa miR-21 FLuc reporter, luciferase, 48 h; active = well fitted rising curve with a large enough effect; inconclusive = small, poorly fitted or top-dose-only effect; inactive = no such curve, though single readings can be large or run the other way;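 note: % of control where 0% means no effect; miR-21 action dims this reporter so a rising signal means less miR-21 action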
#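 HeLa cells stably expressing CMV-driven firefly luciferase with a downstream miR-21 binding sequence, endogenously expressing miR-21, were treated with titrations (up to about 40uM final) for 48 hours at 37 degree Celsius. Luciferase luminescence was read after lysis.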
# * = called active by the depositor; ? = inconclusive; . = not tested or not shown; & = joins results of further samples; [ ] = another dose, or the depositor's remark. An excerpt. The share of hits here may be higher or lower than overall.
1. Cc1ccc(S(=O)(=O)N2CCN(C(=O)c3ccc(-n4cncn4)c([N+](=O)[O-])c3)CC2)cc1
2. O=C(Nc1nc2ccccc2n1CCN1CCOCC1)c1ccc(COc2ccccc2Br)o1
3. CCCCOP(=O)(c1ccc(N(C)C)cc1)C(O)c1ccc(OC)c(OC)c1 (centres undefined)
4. O=C(C[C@@H]1C/C=C\CCC(=O)OC[C@H](Cc2ccccc2)NC1=O)N[C@@H](CO)Cc1ccccc1
5. O=C(CCl)Nc1ccccc1C(=O)c1ccccc1
6. N#C/C(=C1\C(=O)Nc2c(Cl)cc(Cl)cc21)c1nnc2n1CCCCC2
Screen / compound no.	1	2	3	4	5	6
Rango-impB inh	-0.7%	6.4%	1.4%	3.0%	-0.7%	1.1%
GLA inh pH 4.5	.	-11	0	.	0	0
Rango dissoc inh	-13%	21%	0%	-7%	26%	-6%
miR-21 FLuc	.	-6%	0%	.	23%	1%

7. Cc1ccccc1CNC(=O)C(=O)NCCC1CCCCN1S(=O)(=O)c1cccs1 (centres undefined)
8. COC(=O)C1=C(N)Oc2cc(N(C)C)ccc2C1c1ccccc1OC (centres undefined)
9. CCOC(=O)c1ccc(NC(=O)c2cc(S(=O)(=O)N3CCOCC3)cn2C)cc1
10. O=C(/C=C/c1ccc(Br)o1)Nc1nnc(C2CC2)s1
11. CC(C)(C)c1ccc(NC(=O)CSc2n[nH]c(=O)n2-c2cccnc2)cc1
12. CCN(CC)S(=O)(=O)c1ccc2c(c1)nc(CCC(=O)Nc1ccccc1Cc1ccccc1)n2CC
Screen / compound no.	7	8	9	10	11	12
Rango-impB inh	-2.5%	?	0.0%	.	3.6%	-1.4%
GLA inh pH 4.5	.	-1	.	-1	.	-3
Rango dissoc inh	3%	?	1%	.	2%	8%
miR-21 FLuc	.	20%	-1%	-18%	-1%	3%

13. CC1CCN(C(=O)c2cc3nc(-c4ccccc4)cc(-c4ccccc4)n3n2)CC1
14. Cc1ccc(OCC(=O)Nc2nnn(C)n2)c(C)c1
15. CCNC(=O)CSc1nnc(-c2ccccc2)n1-c1ccc(OCC)cc1
16. Cc1nn(CCCC(=O)Nc2cc(Oc3ccc(F)cc3)cc([N+](=O)[O-])c2)c(C)c1[N+](=O)[O-]
17. COC(=O)CSc1nc2ccccn2c(=O)c1C=O
18. COc1ccccc1CNC(=O)C(CCSC)NC(=O)c1cccc(S(=O)(=O)N2CCOCC2)c1 (centres undefined)
Screen / compound no.	13	14	15	16	17	18
Rango-impB inh	?	-2.5%	0.3%	-3.6%	-2.9%	-2.7%
GLA inh pH 4.5	-7	5	-3	10	7	.
Rango dissoc inh	-24%	-1%	-1%	-6%	-7%	0%
miR-21 FLuc	-7%	-38%	-1%	-7%	-35%	.

19. COc1ccc(C(=O)Nc2ccc(Nc3ccccc3)cc2)cc1OC
20. C=CCNC(=O)c1cc(-c2ccncc2)nc2c(C)cc(C)cc12
21. Cn1c(=O)c2c(nc(N3CCCCC3)n2CCSc2nc3ccccc3s2)n(C)c1=O
22. Cc1ccc(NC(=O)CSCC(=O)NC2(C)CCS(=O)(=O)C2)cc1 (centres undefined)
23. COc1ccc(C2CCCN2C(=S)Nc2ccc(C)cc2Cl)cc1OC (centres undefined)
24. COc1ccc(OC)c(NC(=O)COC(=O)CCCN=C2NS(=O)(=O)c3ccccc32)c1
Screen / compound no.	19	20	21	22	23	24
Rango-impB inh	0.1%	5.6%	13%	0.1%	1.6%	0.0%
GLA inh pH 4.5	.	.	-3	.	-15[21.1 µM]	.
Rango dissoc inh	4%	2%	7%	15%	11%	-5%
miR-21 FLuc	-7%	0%	-5%	.	-18%	.

25. Cc1cc(NC(=O)COC(=O)[C@@H](NS(=O)(=O)c2ccccc2)C(C)C)no1
26. O=c1[nH]cnc2[nH]ncc12
27. CC(C)c1ccc(NC(=O)[C@H](NC(=O)[C@@H]2Cc3ccccc3CN2)c2ccccc2)cc1
28. CCOC(=O)N1CC=C2C(C#N)=C(N)C(C#N)(C#N)[C@H](c3ccsc3)[C@H]2C1
29. O=C(COC(=O)/C=C/c1ccc([N+](=O)[O-])cc1)NCc1ccco1
30. CCOc1ccc(-c2nnc(-c3cccs3)o2)cc1OCC
Screen / compound no.	25	26	27	28	29	30
Rango-impB inh	-0.2%	4.9%	-1.4%	?	-0.4%	-1.7%
GLA inh pH 4.5	-2	-6&8	.	5	11	6
Rango dissoc inh	1%	4%	-21%	?	3%	-2%
miR-21 FLuc	5%	-10%	-13%	5%	-2%	-64%

31. C[C@H](CO)N1C[C@H](C)[C@@H](CN(C)S(=O)(=O)c2ccccc2)Oc2c(NC(=O)Nc3ccc4c(c3)OCO4)cccc2C1=O
32. CSc1nc(-c2ccco2)nn1S(=O)(=O)c1ccc(C)cc1
33. CC1=CC2=NC(=O)/C(=C\c3cccn3CCOc3ccccc3C)C(=N)N2O1
34. CCC1(c2ccc(F)cc2)NC(=O)N(CC(=O)Nc2ccc(S(N)(=O)=O)cc2)C1=O (centres undefined)
35. COc1ccccc1OCCNC(=O)c1cc(C2CC2)nc2c1cnn2C(C)C
36. CSc1nsc(SCC(=O)Nc2ccccc2C(=O)O)n1
Screen / compound no.	31	32	33	34	35	36
Rango-impB inh	0.2%	4.9%	?	-1.7%	5.1%	-1.9%
GLA inh pH 4.5	.	-2	?	6	.	.
Rango dissoc inh	28%	19%	-12%	23%	16%	0%
miR-21 FLuc	.	-13%	4%	-1%	.	-37%

37. CC1CCCN(C(=O)COC(=O)c2cc(Br)ccc2O)C1 (centres undefined)
38. CCOC(=O)CCn1cnc2ccc([N+](=O)[O-])cc2c1=O
39. CCOc1cc(/C=N/NC(=O)CN2CCCCC2)ccc1OCc1cccc(Cl)c1
40. COc1ccc(/C=C2/SC(=O)N(CCC(=O)Nc3ccc(C)cc3)C2=O)cc1OC
41. O=C(c1ccco1)N1CCN(C(=O)c2cccc3c2C(=O)N(C2CCCCC2)C3)CC1
42. CCOc1cc(/C=N/n2c(C)nnc2C)ccc1O
Screen / compound no.	37	38	39	40	41	42
Rango-impB inh	0.4%	-6.7%	-0.2%	.	-0.1%	1.5%
GLA inh pH 4.5	.	2	-5	1	10	-1
Rango dissoc inh	-2%	-19%	25%	.	-1%	8%
miR-21 FLuc	.	0%	-7%	-3%	-11%	-2%

43. O=C(Nc1ccccc1)OCCNC(=O)c1cccc(Cl)c1
44. COc1cccc(C2CC(c3cccc(C)c3)n3ncnc3N2)c1 (centres undefined)
45. Cc1ccc(C(=O)N/C(=C\c2ccc(C)o2)C(=O)O)cc1
46. COc1ccc(C2=NOC(C)(c3sc(-c4ccc(Cl)cc4)nc3C)C2)cc1 (centres undefined)
47. COc1ccc(C(c2sc3nc(C)nn3c2O)N2CCN(CCO)CC2)cc1OC (centres undefined)
48. CN(C)CCCNC(=O)C(=O)Nc1ccc2c(c1)N(S(=O)(=O)c1cccs1)CCC2
Screen / compound no.	43	44	45	46	47	48
Rango-impB inh	-2.7%	2.8%	2.0%	-2.8%	-1.2%	-1.2%
GLA inh pH 4.5	0	-11	-3	.	-6	.
Rango dissoc inh	8%	-8%	-17%	-10%	-3%	-10%
miR-21 FLuc	-6%	-1%	-20%	.	-3%	.

49. c1ccc2c(c1)CCN(C1=Nc3cccc4cccc1c34)C2
50. Cc1ccc(NC(=O)C2CCCN(S(=O)(=O)c3cnc[nH]3)C2)cc1C (centres undefined)
51. S=c1[nH]c2ccccc2n2cccc12
52. O=C(Cc1ccccc1[N+](=O)[O-])NC1CC2CCC1C2 (centres undefined)
53. COCCN(C(=S)Nc1ccc(C)cc1)C(C)c1ccco1 (centres undefined)
54. Cc1cc(C(=O)NC2CCCCC2)on1
Screen / compound no.	49	50	51	52	53	54
Rango-impB inh	?	5.5%	2.9%	1.3%	-3.7%	0.2%
GLA inh pH 4.5	4	1	-8	.	9	6
Rango dissoc inh	?	-3%	?	7%	16%	-13%
miR-21 FLuc	-62%	-4%	-5%	-9%	-10%	-8%

55. CC1(C)CCc2cc(-c3ccn(S(=O)(=O)c4ccccc4Cl)n3)ccc2O1
56. Cc1nc2ccccc2c(=O)n1NC(=O)c1ccccc1[N+](=O)[O-]
57. CN(Cc1ccccc1)CC(O)COc1ccc(CNCc2nccn2C)cc1 (centres undefined)
58. CCC(C)(C)C1CCC2(CC1)NC(=O)N(CC(=O)NCCc1ccc(OC)c(OC)c1)C2=O (centres undefined)
59. CN1CCC(N(C)S(=O)(=O)c2ccc(C(C)(C)C)cc2)CC1
60. O=S(=O)(Nc1cccnc1)c1cccc(Cl)c1
Screen / compound no.	55	56	57	58	59	60
Rango-impB inh	-0.2%	-4.1%	-0.6%	0.2%	-2.0%	1.3%
GLA inh pH 4.5	4	-5	-3	.	.	-6
Rango dissoc inh	5%	-1%	-10%	-1%	-3%	20%
miR-21 FLuc	-39%	-1%	-6%	.	3%	-1%

61. COc1ccc(S(=O)Cc2ccc(C(=O)N3CCN(C(=O)c4ccco4)CC3)o2)cc1 (centres undefined)
62. Cc1ccc2c(C(=O)CSc3ccccc3)c(C)[nH]c2c1
63. O=C(CSC1=NS(=O)(=O)c2ccccc2N1)Nc1cccc(F)c1
64. O=C(CNC(=O)c1ccco1)N=Nc1c(O)n(CCc2ccccc2)c2ccccc12
65. COc1ccc(N(C(=O)c2ccco2)S(=O)(=O)c2cc(Cl)c(Cl)cc2Cl)cc1
66. O=C(CN(Cc1ccco1)C(=O)c1ccc([N+](=O)[O-])cc1)Nc1ccccc1C(F)(F)F
Screen / compound no.	61	62	63	64	65	66
Rango-impB inh	3.7%	-0.6%	0.2%	4.0%	-0.2%	1.2%
GLA inh pH 4.5	.	4	.	-13	-2	.
Rango dissoc inh	2%	-5%	4%	0%	-15%	14%
miR-21 FLuc	4%	-26%	.	?	24%	.

67. N#Cc1ccc(OCC(=O)NCC2COc3ccccc3O2)cc1 (centres undefined)
68. CN(CC(=O)Nc1ccccc1Br)C(=O)CNC(=O)c1ccco1
69. CC(=O)c1cccc(CN2CCN(CC(C)C)C(CCO)C2)c1 (centres undefined)
70. COc1ccc(C(=O)NC(C)(C)C)cc1S(=O)(=O)N1CCCC1
71. COc1ccc(CN2CC(C(=O)NCCCN3CCOCC3)CC2=O)cc1 (centres undefined)
Screen / compound no.	67	68	69	70	71
Rango-impB inh	0.0%	-2.0%	1.0%	0.6%	0.2%
GLA inh pH 4.5	.	.	5	1	3
Rango dissoc inh	6%	12%	2%	-14%	3%
miR-21 FLuc	.	.	-1%	-2%	-1%

# Gathered by group, those above with a Cl atom (9)
5. O=C(CCl)Nc1ccccc1C(=O)c1ccccc1
6. N#C/C(=C1\C(=O)Nc2c(Cl)cc(Cl)cc21)c1nnc2n1CCCCC2
23. COc1ccc(C2CCCN2C(=S)Nc2ccc(C)cc2Cl)cc1OC (centres undefined)
39. CCOc1cc(/C=N/NC(=O)CN2CCCCC2)ccc1OCc1cccc(Cl)c1
43. O=C(Nc1ccccc1)OCCNC(=O)c1cccc(Cl)c1
46. COc1ccc(C2=NOC(C)(c3sc(-c4ccc(Cl)cc4)nc3C)C2)cc1 (centres undefined)
55. CC1(C)CCc2cc(-c3ccn(S(=O)(=O)c4ccccc4Cl)n3)ccc2O1
60. O=S(=O)(Nc1cccnc1)c1cccc(Cl)c1
Screen / compound no.	5	6	23	39	43	46	55	60
Rango-impB inh	-0.7%	1.1%	1.6%	-0.2%	-2.7%	-2.8%	-0.2%	1.3%
GLA inh pH 4.5	0	0	-15[21.1 µM]	-5	0	.	4	-6
Rango dissoc inh	26%	-6%	11%	25%	8%	-10%	5%	20%
miR-21 FLuc	23%	1%	-18%	-7%	-6%	.	-39%	-1%

65. COc1ccc(N(C(=O)c2ccco2)S(=O)(=O)c2cc(Cl)c(Cl)cc2Cl)cc1
Screen / compound no.	65
Rango-impB inh	-0.2%
GLA inh pH 4.5	-2
Rango dissoc inh	-15%
miR-21 FLuc	24%
